LASV entry inh: inhibitors of Lassa virus binding or entry into cells; Lassa virus pseudotyped entry inhibition, cell-based qHTS; control for the full effect not named in the record; many of its hits are not listed in these tables; Potency, µM (titrated, usually from 49.2 µM), without a hit: at the top dose activity change, negative = inhibition, hits mostly inhibitors; 18,000 tested, 4.1% active; AID 720533; active = well fitted inhibition curve with a large enough effect; inconclusive = small, poorly fitted or top-dose-only effect; inactive = no such curve, though single readings can be large or run the other way; tested in HEK293 cells; note: luciferase read-out
MARV entry inh: Marburg virus entry inhibition. AID 720532. 18,000 tested, 6.5% active. Marburg virus pseudotype entry/binding inhibition, cell-based; control for the full effect not named in the record; many of its hits are not listed in these tables. Potency, µM (doses to about 49.2 µM), for inactives: at the highest dose activity change, negative = inhibition, actives largely listed as inhibitors; active means well fitted inhibition curve with a large enough effect; inconclusive means small, poorly fitted or top-dose-only effect; inactive means no such curve, though single readings can be large or run the other way; tested in HEK293 cells; note: luciferase read-out
Numbers without * were called inactive; ? = inconclusive; · = not tested or not shown; & = joins results of further samples; ! = repeats disagree; [ ] = another dose, or the depositor's remark. % is set by controls: 0 for no effect and ±100 for the full control effect; potency is the fitted concentration of half-maximal effect. Hits appear at their usual frequency; overall some 8.2% were active at least once.

Under each structure – LASV entry inh | MARV entry inh
CSc1nc(N)c2ncn([C@@H]3O[C@H](COP(=O)(O)OP(=O)(O)OP(=O)(O)O)[C@@H](O)[C@H]3O)c2n1
 : -11% | 14%
Cc1cc([C@@H]2CCCN2C)on1
 : 7% | 9%
COc1cc(C)c(CN2CCOc3ccc(C(O)c4cccnc4)cc3C2)cc1C (stereo not given)
 : -12% | ?
CC1CCC2C(C)C(=O)OC3OC4(C)CCC1C32OO4 (stereo not given)
 : ? | -7%
CCN1C(=O)NC(c2cccc(F)c2)C(C(C)=O)=C1C (stereo not given)
 : -12%[8.59 µM] | ?
C/C=C/c1ccc2oc(-c3ccc(O)cc3)c(C)c2c1
 : -5% | 7%
COc1ccc(-c2ccc(CN3C(C(C)C)C(=O)N(Cc4cn(Cc5ccco5)nn4)CCS3(=O)=O)cc2)cn1 (stereo not given)
 : 14% | -4%
COc1ccc2c(c1)O[C@H](c1ccc3c(c1)OCO3)[C@@H](OC(=O)Nc1ccc(C)c(Br)c1)C2=O
 : 2% | -3%
CCC1(c2ccc(O)cc2)NC(=O)N(C)C1=O (stereo not given)
 : -7% | 2%
O=C(NCCc1ccccc1)c1ccc(NC(=O)C2CCCC2)cc1
 : 41%[activator] | 77%[activator]
O=C(Cn1cc(COC(=O)c2c3ccccc3cc3ccccc23)nn1)c1ccc(O)cc1
 : -26% | -6%
CC(C)Cc1nc2cc(NS(=O)(=O)N(C)C)cc(C(=O)N3CCc4ccccc4C3)c2n1C
 : -12% | 9%
Cc1ccccc1-c1ccc(CN2C(C)C(=O)N(Cc3cn(Cc4ccco4)nn3)CCS2(=O)=O)cc1 (stereo not given)
 : · | -34%
C=C(C)C(=O)c1cccs1
 : 1% | -23%
C=C[C@@H]1C[C@H](C=C)OP(=O)(OCC(=C)C)O1 (stereo not given in full)
 : 33%[activator] | 50%
C[C@H]1[C@H](O)[C@@H](N=[N+]=[N-])CCO[C@H]1c1ccccc1
 : -6%[8.59 µM] | -12%[8.59 µM]
COc1ccc(CN2CCOc3ccc(CN4CCC(Oc5cccnc5)CC4)cc3C2)cc1C
 : -5% | ?
CCC(=O)OC1(C)C(=O)C=C2C=C(/C=C/COC)OC=C2C1=O (stereo not given)
 : 0% | -14%
CCC(C)(C)c1ccc(O)cc1
 : -2% | 13%
COc1cc2c(cc1OC)[C@@H]1O[C@](CCCCN3C(=O)c4ccccc4C3=O)(C2)OC2=C1C(=O)c1ccccc1C2=O
 : -2%[8.59 µM] | -9%[8.59 µM]
COc1ccc2c(c1)O[C@@H](c1ccc3c(c1)OCO3)[C@H](OC(=O)NS(=O)(=O)c1ccc(C)cc1)C2=O
 : 22% | 51%[activator]
C[C@@H]1CC[C@H]2C(=O)N(Cc3ccccc3)C[C@H](O)CN2[C@H]1c1ccc(Br)cc1
 : 3%[8.59 µM] | -24%[8.59 µM]
CCn1nc(C)cc1C(=O)NCC1CCC2(CCN(Cc3ccccc3F)CC2)O1 (stereo not given)
 : 6% | -13%
CC[C@H](NC(=O)[C@H](CCC(=O)O)NC(=O)[C@H](CCC(=O)O)NC(=O)[C@H](CC(=O)O[S+](=O)([O-])c1cccc2c(NCCN)cccc12)NC(=O)[C@H](CCC(=O)O)NC(=O)[C@H](CC(=O)O)NC(C)=O)C(=O)ON[C@@H](C)C(=O)N[C@@H](CO)C(=O)N[C@@H](CCCCNC(=O)c1ccc(N=Nc2ccc(N(C)C)cc2)cc1)C(N)=O
 : -2% | 11%
O=C1[C@@H]2CSCCS(=O)(=O)N2C(=O)N1c1ccccc1
 : -3% | 27%
CC(=O)OCC(=O)[C@H]1CC[C@H]2[C@@H]3CC[C@H]4C[C@H](O)CC[C@]4(C)[C@H]3C(=O)C[C@]12C
 : -3%[17.8 µM] | 1%[17.8 µM]
O=C1CS(=O)(=O)N(Cc2ccccc2)[C@H]1Cc1ccccc1
 : 3% | 21%
O=c1c(O)c(-c2ccccc2O)oc2cc(O)cc(O)c12
 : -7% | -5%
CC#CCOC(=O)c1c(C)nc2sc3c(c2c1N)CC[C@@H](O)C3
 : -26% | 11%
CC1=CC(=C(c2ccc(N)cc2)c2ccc(N)cc2)C=CC1=N
 : 7.9µM* | ?
COC(=O)c1c(OCc2ccc(F)cc2)cc(=O)n2c1CCN(Cc1ccc3cccnc3c1)CC2
 : -12% | 4%
CC(CCC(=O)OC[C@H]1O[C@H](C#Cc2ccccc2)C=C[C@H]1Oc1ccc(C)cc1)=NOC[C@@H](O)[C@H]1O[C@@H]2OC(C)(C)O[C@H]2[C@@H]1O
 : · | -2%[8.59 µM]
COc1ccc(N2CC(C)(C)[C@H](CC(=O)Nc3ccccc3)C2=O)cc1
 : 15% | 22%
NCCC(O)C(=O)NC1C[C@@H](N)[C@H](O[C@@H]2OC(CN)C(O)C(O)C2O)C(O)[C@H]1O[C@H]1OC(CO)C(O)C(N)C1O (stereo not given in full)
 : 14% | -3%
COc1ccc2c(c1)C(=O)[C@@H](OC(=O)NS(=O)(=O)c1ccc(F)cc1)[C@H](c1ccc(OC)c(Br)c1)O2
 : -16% | 6%
CCCCc1nc2c(c3c1C[C@H](C)OC3)CN(S(=O)(=O)CCCC)CC2
 : 3%[8.59 µM] | -1%[8.59 µM]
CC1(OC(=O)C2CCCC2)C(=O)C=C2C=C(c3ccsc3)N(CC3CC3)C=C2C1=O (stereo not given)
 : 42%[activator][8.59 µM] | ?
COc1cccc2c1cc([N+](=O)[O-])c1c(C(=O)O)cc3c(c12)OCO3
 : -11%&-23%&2% | 9%&-26%&-1%
COC(=O)[C@]1(C)CC[C@@]2(C)CC[C@@]3(C)C4=CCc5c(cc(O)c(O)c5C)[C@]4(C)CC[C@@]3(C)C2C1 (stereo not given in full)
 : 18µM* | ?
COC(=O)C1=C(C(=O)OC)[C@@H]2Nc3ccccc3[C@@]23C[C@@H](C(=O)OC)N(C(=O)Nc2ccc(C(F)(F)F)cc2)C3=N1
 : -16%[8.59 µM] | -15%[8.59 µM]
CCN(CC)CCOC(=O)C(C)(c1ccccc1)c1ccccc1
 : ? | 28µM*
CO[C@]1(C2=NCCN2)COc2ccccc2O1
 : -2% | 10%
O=C(NCCc1nnc2n1CCN(Cc1ccc(F)cc1)CC2)c1ccco1
 : 9% | 6%
OC[C@H]1O[C@@H](n2cnc3cc(Cl)c(Cl)cc32)[C@H](O)[C@H]1O
 : -2%&3% | -10%&-5%
COc1ccc(-c2c(C)cc3oc(=O)cc(-c4ccccc4)c3c2C)cc1C=O
 : ? | ?
C=CCCN(Cc1ccc(C)cc1)S(=O)(=O)C=C
 : 26% | 19%
CC(C)(CO)CNC(=O)c1ccc2[nH]c(O)c(N=Nc3ccc(S(N)(=O)=O)cc3)c2c1
 : · | 65%[activator]
C=CCCC1(C(=O)c2ccccc2)C(=O)C(CC=C(C)C)=C(OC)C(CC=C(C)C)(CCC=C(C)C)C1=O (stereo not given)
 : · | -1%[8.59 µM]
COc1ccc(C(=O)Oc2cc(OC)cc(OC)c2C(C)=O)cc1
 : -5%[8.59 µM] | ?
CC(=O)N1CC[C@@H]2CC(=O)CC[C@@H]21
 : -14%[107 µM] | 19%[107 µM]
COc1ccc2c(c1)OC(C)CN(CCNC(=O)c1csc(-c3cccs3)n1)C2 (stereo not given)
 : -21% | -17%
Cc1cnc(-n2ncc(C(=O)NCCCc3ccncc3)c2C)nc1-c1ccc(F)cc1
 : -12% | 20µM*
CC(C)c1cnc(NC(=O)Cc2ccccc2)s1
 : 20% | 16%
CC(C)CC1C(=O)N(Cc2cn(Cc3ccco3)nn2)CCS(=O)(=O)N1Cc1ccc(-c2ccc(Cl)c(Cl)c2)cc1 (stereo not given)
 : ? | ?
CNc1ccc(C(=O)CC(O)CCC(C)C2OC(=O)CC(O)CC(=O)CC(O)CC(O)CC(O)CC(O)CC3(O)CC(O)C(C(=O)OC)C(CC(O[C@@H]4O[C@H](C)[C@@H](O)[C@H](N)[C@@H]4O)/C=C/C=C/C=C/C=C/C=C/C=C/C=C/C2C)O3)cc1 (stereo not given in full)
 : -1% | -11%
COC(=O)c1ccc2c(c1)/C(=C/c1cc(Br)c(O)c(Br)c1)C(=O)N2
 : · | ?
O=C(c1ccc2[nH]ccc2c1)N1CCOc2ccc(CN3CCN(c4ccccn4)CC3)cc2C1
 : ? | -14%
CCCOc1cc(N)ccc1C(=O)OCCN(CC)CC
 : 3%[17.8 µM] | 29%[17.8 µM]
CCCc1c(OCC(O)COc2ccc3c(=O)cc(C(=O)O)oc3c2CCC)ccc(C(C)=O)c1O (stereo not given)
 : -4%&-5% | 28%&7%
O=C(OCCN1CCOCC1)C1(c2ccccc2)CCCCC1
 : ? | 32µM*!

Not a retest: 14 of the compounds above.
Under each structure – LASV entry inh | MARV entry inh
Cc1cc([C@@H]2CCCN2C)on1
 : 7% | 9%
COc1cc(C)c(CN2CCOc3ccc(C(O)c4cccnc4)cc3C2)cc1C (stereo not given)
 : -12% | ?
CC1CCC2C(C)C(=O)OC3OC4(C)CCC1C32OO4 (stereo not given)
 : ? | -7%
CCN1C(=O)NC(c2cccc(F)c2)C(C(C)=O)=C1C (stereo not given)
 : -12%[8.59 µM] | ?
C/C=C/c1ccc2oc(-c3ccc(O)cc3)c(C)c2c1
 : -5% | 7%
COc1ccc(-c2ccc(CN3C(C(C)C)C(=O)N(Cc4cn(Cc5ccco5)nn4)CCS3(=O)=O)cc2)cn1 (stereo not given)
 : 14% | -4%
COc1ccc2c(c1)O[C@H](c1ccc3c(c1)OCO3)[C@@H](OC(=O)Nc1ccc(C)c(Br)c1)C2=O
 : 2% | -3%
CCC1(c2ccc(O)cc2)NC(=O)N(C)C1=O (stereo not given)
 : -7% | 2%
O=C(NCCc1ccccc1)c1ccc(NC(=O)C2CCCC2)cc1
 : 41%[activator] | 77%[activator]
O=C(Cn1cc(COC(=O)c2c3ccccc3cc3ccccc23)nn1)c1ccc(O)cc1
 : -26% | -6%
CC(C)Cc1nc2cc(NS(=O)(=O)N(C)C)cc(C(=O)N3CCc4ccccc4C3)c2n1C
 : -12% | 9%
Cc1ccccc1-c1ccc(CN2C(C)C(=O)N(Cc3cn(Cc4ccco4)nn3)CCS2(=O)=O)cc1 (stereo not given)
 : · | -34%
C=C(C)C(=O)c1cccs1
 : 1% | -23%
C=C[C@@H]1C[C@H](C=C)OP(=O)(OCC(=C)C)O1 (stereo not given in full)
 : 33%[activator] | 50%

Next results
Under each structure – LASV entry inh | MARV entry inh
Cc1nn(-c2ccc(F)cc2)c(C)c1CNC(=O)c1ccc(-n2cc(NC(=O)c3ccoc3)cn2)cc1
 : 5% | 21%
CC(C)CCC(=O)O[C@H]1CC[C@H]2[C@@H]3CCC4=CC(=O)CC[C@]4(C)[C@H]3CC[C@]12C
 : -27% | -3%
COC(=O)C1=C(C(=O)OC)[C@@H]2N(C)c3ccccc3[C@@]23C[C@@H](CO)N(C(=O)Nc2ccc(C(F)(F)F)cc2)C3=N1
 : · | ?
Cc1ccc(S(=O)(=O)N[C@@H](CCCCN)C(=O)CCl)cc1
 : ? | ?
Cc1ccccc1-c1cncnc1NCCc1cnc[nH]1
 : 3% | 0%
OC[C@@H]1[C@@H](c2ccc(Cl)cc2)C(c2cccc(Cl)c2)=NN1c1ccccc1
 : -27% | ?

Compound activity from PubChem BioAssay.
